Source: PubChem BioAssay (ICCB-Longwood Screening Facility, Harvard Medical School)
KSHV LANA nucl = LANA-nucleosome interaction inhibition | FITC-LANA1-23 / chicken nucleosome fluorescence polarization; stronger effect = lower value | z-score (test concentration not listed) | actives 0.3% (n = 51,000);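 active means both repeat wells score below -2 in polarization z-score versus plate sample wells, excluding overly bright wells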;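 further: 100 nL library stock added to about 30 µL; numbers are from one replicate; some results filed as inactive read as strong as hits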
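Test system: purified chicken nucleosomes with FITC-labelled LANA N-terminal peptide (1-23); Input: 240 nM purified chicken nucleosomes (480 nM peptide binding sites), final; Medium: TEN-BT buffer, pH 7.5; Timing: 10–45 min, room temperature; Technique: fluorescence polarization, 480 nm excitation, 535 nm parallel and perpendicular emission; Replication: duplicates.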
Ab BasE inh = BasE siderophore biosynthesis inhibition. purified BasE, fluorescence polarization binding displacement. inhibition, % (concentration not given with the values). actives 0.1% (n = 84,000). AID 485350;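 active means both replicates above 25% with normal brightness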;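 further: 0% = negative plate control signal and 100% = positive plate control signal; stock transfer was 100 nL into about 30 µL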
The depositor's hits bear a star; . = not tested or not shown; & = joins results of further samples.

SMILES	KSHV LANA nucl	Ab BasE inh
Cc1nn(Cc2ccccc2Cl)c2sc(C(=O)OCc3nc4ccccc4c(=O)n3CC#N)cc12	.	-2.8
Cc1cc(C(=O)OCC(=O)c2cc(C)n(-c3ccc(Cl)cc3)c2C)no1	.	1.6
CCOC(=O)c1cnc(N2CCN(c3ccccc3)CC2)[nH]c1=O	-0.0055	0.6
Cc1ccc(S(=O)(=O)Nc2cccc(-c3ccc4nnc(C)n4n3)c2)s1	0.0835	0.0
BrCC1(c2ccccc2)OCCO1	0.338	.
O=C(c1ccco1)N1CCN(C2=Nc3cccc4cccc2c34)CC1	.	13.3
COc1ccc(C2C(C#N)=C(N)Oc3cc4c(cc32)OCO4)cc1 (configuration not stated)	0.222	2.8
CC(NS(=O)(=O)c1ccccc1)C(=O)NCc1ccc(CN2CCCC2)cc1 (configuration not stated)	.	1.5
Cc1ccc2[nH]c(=O)c(CN(C)S(C)(=O)=O)cc2c1	0.024	0.1
Cc1cc2nc(-c3ccc(N=Cc4cccc(C)c4O)cc3)oc2cc1C	.	2.7
O=S(=O)(Cc1ccc(Cl)cc1Cl)C1CCCCC1O (configuration not stated)	-0.44	0.2
CN/N=C/c1ncc(C(F)(F)F)cc1Cl	-0.797	4.2
CCOC(=O)c1sc2nc(C(C)Sc3nnc(C)s3)[nH]c(=O)c2c1C (configuration not stated)	.	2.2
Cc1cc(C)n(CC(O)CON=C2c3ccccc3-c3ccccc32)n1 (configuration not stated)	0.975	-0.6
COc1ccc(C2=NN(C(C)=O)CC2)cc1	-1.11	2.2
N#Cc1ccc(CSc2nnc(C3CC3)n2C2CC2)cc1	.	2.6
O=C(Nc1ccc(F)cc1)N1CCN(C2c3ccccc3-c3ccccc32)CC1	-0.932	.
COc1ccccc1-c1cc(C(=O)O)c2ccccc2n1	-0.423	1.0
O=C(NCc1cccc(C(F)(F)F)c1)c1ccc(=O)[nH]c1	.	0.1
Cc1cc(C(F)F)n2ncc(C(=O)N3CCCCC3)c2n1	-0.512	2.9
S=c1[nH]nc(Nc2ccccc2)n1-c1ccccc1	0.574	2.2
CCOC(=O)c1ccc2c(c1)N(CC#N)C(=O)C(C)(C)O2	0.519	1.9
COc1ccccc1NC(=O)N(c1c(N)n(Cc2ccccc2)c(=O)[nH]c1=O)C1CCCC1	.	-1.4
COC(=O)Cn1c(=O)n(-c2ccccc2)c(=O)c2oc3ccccc3c21	-0.623	0.3
C/C(=N\OCc1nc(-c2cccc(Cl)c2)no1)c1ccc(Cl)cc1	-0.587	3.1
COC(=O)CN(C1CCCCC1)S(=O)(=O)c1ccccc1	-0.74	0.0
CCOC(=O)c1cc(-c2ccc(C)cc2)n(CCCC(=O)NCc2cccs2)c1	0.316	0.0
CC(C)(C)n1nnnc1C(c1cccnc1)N(Cc1ccccc1)Cc1ccco1 (configuration not stated)	0.404	-1.2
O=C1CC(c2ccccc2O)=NN1	.	26.7*
COc1ccccc1/C=N/O	.	0.4

Ordered by the number under KSHV LANA nucl (lowest first): four from the list above
| structure | KSHV LANA nucl |
| --- | --- |
| COC(=O)Cn1c(=O)n(-c2ccccc2)c(=O)c2oc3ccccc3c21 | -0.623 |
| Cc1cc(C(F)F)n2ncc(C(=O)N3CCCCC3)c2n1 | -0.512 |
| COc1ccccc1-c1cc(C(=O)O)c2ccccc2n1 | -0.423 |
| S=c1[nH]nc(Nc2ccccc2)n1-c1ccccc1 | 0.574 |

More structures follow.
SMILES	KSHV LANA nucl	Ab BasE inh
O=C(Cc1ccccc1)Nc1nonc1-c1ccccc1	0.598	-0.7
O=c1[nH]c(=S)[nH]c2c1cnn2-c1ccc(F)cc1	0.0505	0.8
CC(=O)N[C@@H](Cc1c[nH]c2ccccc12)C(N)=O	-0.321	0.0
O=S(=O)(NCCOc1cccc2cccnc12)c1ccc(F)cc1	2.66	-1.9
COC(=O)c1ccc(N=c2sc(C(=O)OC)cc(=O)n2C)cc1	0.777	1.9
CC(OC(=O)c1cccc(O)c1)C(=O)Nc1cccc(Cl)c1 (configuration not stated)	.	-0.8
Cc1cc(N(C)CC(=O)Nc2ccc(OC(F)(F)F)cc2)n2ncnc2n1	.	1.3
NS(=O)(=O)C#Cc1ccccc1	0.556	0.2
CON(C)S(=O)(=O)c1cc(C(=O)OCc2nc(-c3ccc(Cl)cc3)no2)ccc1Cl	.	-5.0
N#Cc1ccc(/C=N/NC(=O)Cn2ccc(C(F)(F)F)n2)cc1	.	-0.4
Clc1ccc(-c2csc(N3CCN(c4ccccc4)CC3)n2)cc1	0.043	0.2
O=C(O)/C=C/c1c(F)c(F)c(N2CCOCC2)c(F)c1F	-0.607	2.1
CCOc1ccc2nc(SCC(=O)Nc3ccccc3)[nH]c2c1	.	0.3
CN(C=C1C(=O)NC(=O)NC1=O)Cc1ccc(Cl)c(Cl)c1	.	-9.8
COc1ccc(OCCC(=O)NC2=NCCS2)cc1	0.145	2.4
Nc1n[nH]c2c1C1(CCCC1)Cc1ccccc1-2	2.51	-0.5
CCN(CC)S(=O)(=O)c1cccc(C(=O)NCCCN2CCOCC2)c1	.	1.1
CC1=CC(C)(C)N(C(=O)/C=C/c2ccccc2)c2ccc(C)cc21	.	2.0
CCOc1ccc(CN(C)C(=O)CNC(N)=O)cc1	.	1.6
Cc1ccc(Cn2nc(C)c(C(=O)NCc3ccco3)c2Cl)cc1	.	2.3
CC(=O)NOC(=O)c1c(-c2c(Cl)cccc2Cl)noc1C	0.847	-0.1
O=C(CCN1N=C(c2ccccc2)CCC1=O)NC1CCCCC1	2.75	-3.4
O=C(NCc1ccccc1)c1cccnc1Nc1ccccc1	-1.1	0.4
Cc1cc(C(=O)CSc2ccc(S(=O)(=O)N3CCN(Cc4ccccc4)CC3)cn2)c(C)n1C	.	2.7
CCN1CCSc2ccc(C(=O)NCC3CCCO3)cc21 (configuration not stated)	-0.233	1.5
CC(C)COCC(CN(Cc1ccccc1)c1ccccc1)N1CCCC1 (configuration not stated)	1.17&0.564&-0.701&-0.308&0.0545	2.9&-0.1&-0.3
Nc1c(-c2ccc(Cl)cc2)cnc2ncnn12	-0.24	.
CCN(CC)C(=O)COc1ccc(/C(C)=N/NC(=O)Cc2ccccc2)cc1	.	1.9
COc1cccc(NC(=O)C(c2ccccc2)N2CCN(S(=O)(=O)c3ccccc3)CC2)c1 (configuration not stated)	.	-0.4
CCC1=NN(C(=O)COc2ccccc2C)C(O)(c2ccncc2)C1 (configuration not stated)	-0.94	0.7
CC(C)(C)OC(=O)COc1ccc(C#N)cc1	.	-0.5
CCOCCCN=C1Sc2nc3cc4c(cc3cc2CN1CC1CCCO1)OCO4 (configuration not stated)	0.155	-2.7
CN(C)CC(O)Cn1c2ccc(Cl)cc2c2cc(Cl)ccc21 (configuration not stated)	0.739	.
CCOC(=O)c1noc(C)c1-c1csc(COc2ccccc2)n1	-0.452	0.0
COc1ccc(CNc2cccc(C(=O)O)c2C)cc1OC	1.46	-0.2
O=c1c(C(CN2CCOCC2)c2ccccc2)nc(-c2ccccc2)nn1CN1CCOCC1 (configuration not stated)	.	-1.5
CC(=O)Nc1nc2ccccc2n1Cc1ccc(C)cc1	0.233	0.6
CC(C)(C)NC(=O)CN1C(=O)CCC1=O	-0.363	2.6
O=C1OCCC1SC1=N/C(=C/c2ccco2)C(=O)N1c1ccc(OC(F)F)cc1 (configuration not stated)	.	1.4
CSc1ccccc1N1C(=O)C=CC1=O	-0.427	2.1
O=C(O)CN(c1ccccc1)c1ccccc1	.	1.0
Nc1c(C(=O)O)sc2ncccc12	.	4.8
CNC(=O)c1ccsc1NC(=O)c1cccc(S(C)(=O)=O)c1	0.026	-2.7
CN1C/C(=C\c2ccccc2Cl)C(=O)/C(=C/c2ccccc2Cl)C1	-0.587	.
O=C(O)c1ccccc1OP(=O)(O)O	-0.351&-0.35	2.4&3.9
COc1ccc(CC2c3cc(OC)c(OC)cc3CC[N+]2(C)CCC(=O)OCCCCCOC(=O)CC[N+]2(C)CCc3cc(OC)c(OC)cc3C2Cc2ccc(OC)c(OC)c2)cc1OC (configuration not stated)	0.294&0.1&1.65	-1.5
O=C(O)C12CCCC(C(=O)O)(CCC1)C2	.	-1.2
O=C1c2cccnc2C(=O)N1Cc1ccc(S(=O)(=O)NCc2ccco2)cc1	2.41	-1.7
Cc1ccccc1NC(=S)NC(=O)C(C)C	0.875	-0.2
O=C1/C(=C\C=C\c2ccco2)SC(=S)N1NS(=O)(=O)c1ccccc1	-0.518	40.5*
N#CC(=S)Nc1ccc(F)cc1	.	0.7
O=C(N/N=C(\Cc1ncc[nH]1)c1ccccc1)c1cccs1	.	2.1
CC(Sc1nnc(Cc2cccs2)n1C)C(=O)c1ccc(NS(C)(=O)=O)cc1 (configuration not stated)	.	-0.2
Nc1cc(=O)[nH]c(SCCCCN2C(=O)c3ccccc3C2=O)n1	.	0.8
CCOc1ccc(CN2CCC(C(=O)NCC3CCCO3)CC2)cc1OC (configuration not stated)	-0.152	-2.3
CCOC(=O)c1sc(NC(=S)NC(=O)c2cc3ccccc3o2)nc1C	.	2.1
COc1ccc(S(=O)(=O)C(C)(C)C)cc1	-0.045	-0.5
COc1ccc(C)cc1N1CC(C(=O)Nc2cc(Cl)ccc2N2CCN(C)CC2)CC1=O (configuration not stated)	.	-4.1
CCN1CCN(C(=O)CSc2ccc(C)cc2)CC1	-1.17	0.5
Cc1cccc(NC(=O)c2cnc3ccccn3c2=O)c1	0.285	0.7

Going on with the list:
SMILES	KSHV LANA nucl	Ab BasE inh
CC1CCc2nc3ccc(S(=O)(=O)N4CCC(C(=O)N5CCCCC5)CC4)cc3c(C(=O)O)c2C1 (configuration not stated)	-0.854	-0.3
O=C(CSc1nc(-c2ccccc2)cc(C(F)(F)F)n1)N1CCCCC1	0.226	3.0
O=C(Cn1nnc(-c2cccs2)n1)OCc1nc2sc3c(c2c(=O)[nH]1)CCC3	.	-3.2
C=CCN(CC=C)C(=O)Nc1ccccc1	-0.881	-0.3
CNc1oc(COc2ccc(C)cc2)nc1C#N	0.297	1.6
Cc1cc(NC(=O)COC(=O)c2ccccc2)no1	.	-0.3
Cc1ccc(C)c2[nH]c(=O)c(C(c3nnnn3C3CCCC3)N3CCCC3)cc12 (configuration not stated)	-0.35	-1.4
Cc1ccc(C(=O)OC2OCCOC2OC(=O)c2ccc(C)cc2)cc1 (configuration not stated)	.	1.3
CCOC(=O)Cc1nc2cc(Cl)ccc2o1	-0.399	2.1
CCOC(=O)c1oc2ccccc2c1CN(C)Cc1ccccc1OC	.	6.8
Cc1ccc2c(c1)CCCN2C(=O)C1CCCN1C(=O)OC(C)(C)C (configuration not stated)	.	0.2
CCC(=O)Nc1ccc(N2CCN(C(=O)CC(C)C)CC2)cc1	1.18	2.0
COc1c2occc2c(OC)c2c(=O)cc(C)oc12	0.198&-0.292	0.3&-2.3
CC1(C)Cc2[nH]c(=O)c(C(=O)O)cc2CO1	-0.38	-0.3
CCN(CC)c1nc(OCC(F)(F)F)nc(N(c2ccccc2)c2ccccc2)n1	-0.589	-1.4
CCOc1nc(SC)nc2sc3c(c12)CCN(C)C3	0.597	-1.2
Cc1ccc(OCC(=O)NCc2ccco2)c(C(C)(C)C)c1	0.979	0.9
COCC(C)NC(=O)c1cc(-c2ccc(OC)c(OC)c2)no1 (configuration not stated)	-1.51	-2.1
CCOC(=O)c1sc2nc(COC(=O)c3ccc(OCc4c(C)noc4C)cc3)[nH]c(=O)c2c1C	.	-1.0
Cc1ccc(S(=O)(=O)/N=C/c2cccnc2)cc1	0.301	0.9
CCCCOc1c(Cl)cc(CNC(C)(C)CO)cc1OCC	-0.0695	-0.6
NCc1ccc(S(N)(=O)=O)cc1	0.296&0.91&0.743	-0.4&0.7
CS(=O)(=NC(=S)NC(=O)Oc1ccccc1)c1ccccc1 (configuration not stated)	.	0.3
O=C(COCc1cc(-c2ccc(F)cc2)on1)NC1CCCc2ccccc21 (configuration not stated)	0.044	2.4
O=C(CSc1nnc(Nc2ccccc2)s1)c1ccc(S(=O)(=O)N2CCCC2)cc1	.	1.3
Cc1cc(NC(=O)c2ccccc2C)no1	-0.413	3.5
CC(=O)NN1C(=O)c2ccccc2NC1c1ccco1 (configuration not stated)	-0.344	0.6
Clc1ccc2c(c1)-c1[nH]ncc1CS2	0.0505	2.6
CN(C(=O)COc1ccccc1)c1ccc(C(O)(C(F)(F)F)C(F)(F)F)cc1	0.953	-4.3
Cc1ccccc1/C=N/O	.	2.4
O=C(NCCSc1c[nH]c2ccccc12)c1ccc(Br)o1	0.333	0.0
COCCCNC1CC(=O)N(c2ccc(OC)cc2)C1=O (configuration not stated)	0.42	0.6
COc1ccc(NC(=O)CC#N)cc1	.	1.6
COc1ccc(-c2ncnn2-c2sc3c(c2C#N)CCCC3)cc1	-0.168	-0.8
Cc1ccc(-c2cn(-c3ccc(C)cc3)c(=N)s2)cc1	.	0.4

Entries of single compounds, quoted from the list.
Cc1ccc(-c2cn(-c3ccc(C)cc3)c(=N)s2)cc1 across the screens: KSHV LANA nucl = .; Ab BasE inh = 0.4
O=C(NCCSc1c[nH]c2ccccc12)c1ccc(Br)o1 across the screens: KSHV LANA nucl = 0.333; Ab BasE inh = 0.0

6 structures from above, ordered by molecular weight, descending.
SMILES	KSHV LANA nucl	Ab BasE inh
CN(C(=O)COc1ccccc1)c1ccc(C(O)(C(F)(F)F)C(F)(F)F)cc1	0.953	-4.3
O=C(NCCSc1c[nH]c2ccccc12)c1ccc(Br)o1	0.333	0.0
COc1ccc(-c2ncnn2-c2sc3c(c2C#N)CCCC3)cc1	-0.168	-0.8
Cc1ccc(-c2cn(-c3ccc(C)cc3)c(=N)s2)cc1	.	0.4
Clc1ccc2c(c1)-c1[nH]ncc1CS2	0.0505	2.6
Cc1ccccc1/C=N/O	.	2.4

This is a subset; the hit share may differ from the screen's.
